# MgrA-DNA mod = alters Staphylococcus aureus MgrA binding to DNA. fluorescence polarization. inhibition, %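 (about 10 µg/mL by stock and volumes)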. actives 0.13% (n = 84,000);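 active = above 50% in either of two replicates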;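 also: 0% = protein plus DNA without compound and 100% = DNA alone without protein; higher means less MgrA bound to DNA so lower polarization; one replicate is shown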
# S aureus helic = blocks Staphylococcus aureus DNA helicase; purified S. aureus helicase, fluorescence unwinding assay; about half of the hits fall short of the stated cut; inhibition, %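 (tested at about 80 µM)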; actives 0.05% (n = 120,000); AID 485395;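 active = both duplicates at 50% or more, or one of them with a favoured structure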;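 also: 0% = mean of negative control wells and 100% = mean of positive control wells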
# Starred values were filed as active, the others as inactive; . = no result given; & = joins results of further samples. Not all compounds are listed (hit frequency here may not be typical).
SMILES,MgrA-DNA mod,S aureus helic
O=C1COc2ccccc2N1CC(=O)N(CC1CCCO1)C1CCS(=O)(=O)C1 (stereo unspecified),.,10
Cc1nc(N)nc2c1CCCC2,.,12
CCCCOc1ccc(C(=O)NC2CCN(C)CC2)cc1,-0.8,13
O=C(CSc1nccn1Cc1ccccc1)N1CCN(C(=O)c2cccs2)CC1,.,-3
O=C(c1c(F)cccc1F)N1CCN(C/C=C/c2ccccc2)CC1,-0.2,26
CC1CCCCN1C(=O)c1cccc(C#N)c1 (stereo unspecified),.,-5
COc1ccc(-c2[nH]ncc2C(=O)O)cc1,1.2,-1
O=C(Sc1ccc(Cl)cc1Cl)c1csc(-c2ccc3nonc3c2)n1,-0.8,.
Cc1ccc(CN(C)CC(=O)Nc2ccccc2Cc2ccccc2)o1,.,-10
CC(C(=O)NC1CCCC1)N(C)CCOc1ccc(Cl)cc1 (stereo unspecified),.,11
COc1ccc(O)c(C=Nc2ccccc2)c1,0.8,1
CC(=O)N1CCc2cc(C(O)CN3CCN(c4cc(Cl)ccc4C)CC3)ccc21 (stereo unspecified),.,8
Cc1ccsc1CNCCCO,0.4,5
CCOC(=O)c1ccc(NC(=O)C2CC(=O)N(C)C(=Nc3cccc(F)c3)S2)cc1 (stereo unspecified),1.5,.
CCN1C(=O)/C(=C2\C=Cc3ccccc3N2CC)SC1=S,-0.5,14
Cc1ccc(NC(=O)COc2ccccc2O)cc1C,-1.6,3
O=C(O)C1C2C=CC(C2)C1C(=O)Nc1ccccc1 (stereo unspecified),-1.8,.
CCCCc1cc(C)c2[nH]cc(C(=O)O)c(=O)c2c1,-1.4,.
CCCCNc1nnc(SC(C)C(=O)NC(=O)NC)s1 (stereo unspecified),.,7
Cc1cc(/C=N/n2cnc3c(cnn3-c3ccccc3)c2=O)c(C)n1CC(C)C,.,7
Cn1c(SCc2ccccc2)nnc1C1CCCN(CC(=O)Nc2ccc3c(c2)OCO3)C1 (stereo unspecified),-3.6,-5
Cc1noc(C)c1C(=O)N(CC(=O)NC1CCCC1)Cc1ccccc1F,1.8,-8
O=C1CCCc2oc3ccc(NS(=O)(=O)c4cccs4)cc3c21,.,-16
Cc1c(Cl)cccc1-n1c(CCc2ccc(O)cc2)n[nH]c1=S,5.1,.
CC(OC(=O)c1ccccc1NS(=O)(=O)c1ccc2[nH]c(=O)[nH]c2c1)C(=O)N1CCCCC1 (stereo unspecified),.,-10

# (continued)
SMILES,MgrA-DNA mod,S aureus helic
COc1ccc2c(c1OC)C(=O)OC2Nc1nc2ccc(OC(F)(F)F)cc2s1 (stereo unspecified),3.6,-4
C#CC1(OC(C)=O)C(C)CN(C)CC1C (stereo unspecified),-1.9,6
CC(C)NC(C)(C)C#N,.,-19
Cc1scc(C(=O)NCC2CCCCC2)c1C,1.6,7
COC(=O)[C@@H](Cc1c[nH]c2ccccc12)NC(=O)c1ccc2nc[nH]c2c1,.,-1
Cc1cc(C(=O)NC(C)C)n(-c2ccccc2)n1,1.7,-2
CC(NC(=O)c1cc2c(=O)[nH]c3ccccc3c2n1C)c1ccc2c(c1)OCCO2 (stereo unspecified),.,6
Oc1ccccc1-c1nc(N2CCCCCC2)c2ccccc2n1,.,-18
O=C(CC1CCS(=O)(=O)C1)Nc1ccc[nH]c1=O (stereo unspecified),.,0
CCOC(=O)NC1c2ccccc2Oc2ccc(OC)cc21 (stereo unspecified),.,42
CCC(SC1=N/C(=C/c2ccccc2)C(=O)N1c1ccccc1)C(=O)Nc1cc(C)on1 (stereo unspecified),0.8,9
N#Cc1c(NC(=O)CCSc2nnc3ccccn23)sc2c1CCCC2,.,-9
O=C(Nc1cccnc1)Nc1c[nH]c2c(Cl)cccc2c1=O,-1.6,20
Cc1ccc(-c2n[nH]c(=O)c3ccccc23)cc1S(=O)(=O)NCC1CCCO1 (stereo unspecified),.,3
CCC(=O)/C(C)=C/c1ccco1,18,4
CCOc1ccc(CNc2ccc(O)cc2)cc1,1.3,11
Cc1c(OCc2ccc(Cl)cc2Cl)ccc2c1OC(C)(C)CC2=O,1.2,.
CCOc1ccc(-c2cccc(NS(=O)(=O)N(C)C)c2)nn1,.,5
COc1ccc2c(O)c(N=O)ccc2c1,0.5,.
CCCOC(=O)C1=C(C)NC2=C(C(=O)CC(c3ccccc3)C2)C1c1cc2c(cc1Br)OCO2 (stereo unspecified),-0.6,.
Fc1ccc(-n2cc(-c3ccc4c(c3)OCO4)[nH]c2=S)cc1,4.4,8
COc1cc(C(=O)OCCN2C(=O)c3cccc4c(N5CCOCC5)ccc(c34)C2=O)cc(OC)c1OC,2.3,.
O=C1c2ccccc2-c2onc3c(Br)cc(N4CCCCC4)c1c23,40,-79
COc1cc(-c2nn(CCC(N)=O)cc2/C=C(\C#N)C(=O)O)ccc1OC(F)F,.,-18
Cc1ccccc1-c1nnn(CC(=O)N2N=C(c3ccc(Cl)cc3)CC2c2ccco2)n1 (stereo unspecified),.,-6

# Entries shown so far containing bromine, in the order listed:
SMILES,MgrA-DNA mod,S aureus helic
CCCOC(=O)C1=C(C)NC2=C(C(=O)CC(c3ccccc3)C2)C1c1cc2c(cc1Br)OCO2 (stereo unspecified),-0.6,.
O=C1c2ccccc2-c2onc3c(Br)cc(N4CCCCC4)c1c23,40,-79

# Further records:
SMILES,MgrA-DNA mod,S aureus helic
C=CCc1ccccc1OCC(O)CNC(C)C (stereo unspecified),4.6,.
COc1ccc(S(=O)(=O)N2CCC(NC(=O)NCCC(C)C)CC2)cc1,.,-10
S=C(NCCN1CCOCC1)N/N=C/c1ccccc1,.,-9
Cc1cc(CN2CCS(=O)(=O)CC2)c(C(F)(F)F)o1,0.8,.
COC(=O)C1=C(C)N(c2ccc(N(C)C)cc2)C(C)=C(C(=O)OC)C1c1ccccc1,-0.6,2
O=C(NCc1cccs1)/C(=C/c1cccs1)c1ccccc1,2.2,.
O=C(NCCc1ccccc1)c1cc(-c2ccco2)on1,1.1,10
O=C(CC1Sc2ccccc2NC1=O)OCc1nnc(-c2ccccc2)o1 (stereo unspecified),.,-5
O=C(Cc1cn2ccsc2n1)Nc1ccccc1,2.9,-24
Clc1ccc(-c2ncon2)cc1,-2.8,.
CC(C)S(=O)(=O)c1cscc1NC(=O)Nc1ccccc1,-2.0,.
CSc1nc(C)cc(Oc2ccccc2)n1,-1.2,-9
O=C(Cc1ccccc1)N1CCN=C1SCc1ccccc1,-0.7,20
CCCCNC(=O)c1ccc(N2CCCC2)c(NS(=O)(=O)c2ccc(C)cc2)c1,.,10
Cc1nn(C)c(=O)c2noc(/C=C/c3ccsc3)c12,.,21
O=[N+]([O-])c1ccc(Sc2ccc(Cl)cc2)c(-c2ccn[nH]2)c1,-0.4,.
COc1cccc(OCc2nnc(SCC(=O)O)o2)c1,-1.5,18
COc1ccc(-c2noc(CNC(=O)/C=C/c3ccc(OC)c(OC)c3)n2)cc1,1.0,-8
CSC1=NNC(c2ccccn2)S1 (stereo unspecified),3.8,.
CCNC(=S)N1CCN(CC(=O)Nc2cc(Cl)cc(Cl)c2)CC1,0.9,-5
O=C(c1cnn2cc(Br)cnc12)N1CCCc2ccccc21,3.8,-14
CCCn1c(C)c(Br)c(=O)n(C(C)(C)C)c1=O,.,-22
CC(C)=CCC(C)(C)C1OCCN1C(=O)Nc1ccccc1 (stereo unspecified),0.9,-9
Brc1ccc2[nH]c3nc(SCCN4CCOCC4)nnc3c2c1,.,5
Nc1nc(=O)c2cccnc2s1,.,3

# Record cards (already shown).
# Nc1nc(=O)c2cccnc2s1 across the screens: MgrA-DNA mod = .; S aureus helic = 3
# CSC1=NNC(c2ccccn2)S1 (stereo unspecified) across the screens: MgrA-DNA mod = 3.8; S aureus helic = .
# CC(C)=CCC(C)(C)C1OCCN1C(=O)Nc1ccccc1 (stereo unspecified) across the screens: MgrA-DNA mod = 0.9; S aureus helic = -9

# The list goes on:
SMILES,MgrA-DNA mod,S aureus helic
CCOc1cc(-c2cc(N)n[nH]2)cc(OCC)c1OCC,.,1
CCCCN=C1CCCc2ccccc2N1,1.9,8
O=C(N/N=C/c1ccccc1Cl)c1ccc(=O)[nH]n1,.,-16
COc1ccc(N(C(C)=O)C2C=CS(=O)(=O)C2)cc1 (stereo unspecified),.,-12
NC(=O)N1CCCCC/C1=N\O,-2.6,.
O=C(NCCCNC1CCCCC1)c1cc2ccccc2[nH]1,.,-28
O=C(Nc1ccc2[nH]c(=O)[nH]c2c1)NC1CCCCC1,.,8
COc1ccc(-c2nnc(SCCCn3c(=O)[nH]c4ccccc43)o2)cc1,.,-4
N#CCC(c1ccccc1)C(C#N)c1ccc(Br)cc1 (stereo unspecified),-2.4,10
CCCc1cc(=O)oc2cc(C)c(CN3CCCC3)c(O)c12,8.4,2
COc1ccc(N(C)C(=O)Cn2nc(Cc3ccncc3)c3ccccc3c2=O)c(OC)c1,.,-4
COc1ccc(Cl)c(OC)c1C(=O)O,-1.4,.
N#Cc1c(NC(=O)c2cc(-c3cccs3)on2)sc2c1CCC2,3.6,7
CC(C)NC(=O)C(C)N1CCN(S(=O)(=O)c2ccc3ccccc3c2)CC1 (stereo unspecified),.,13
COC(=O)C1=C(C)N=c2s/c(=C\c3cccc([N+](=O)[O-])c3)c(=O)n2C1c1ccc(OC)c(OC)c1 (stereo unspecified),-0.4,.
Cc1ccc(OCCSc2nc(O)cc(=O)n2C2CCCC2)cc1,.,2
CCOc1ccc(C(=O)Nc2cnn(Cc3ccc(F)cc3)c2)cc1,.,-2
CCOC(=O)C1Sc2ccccc2NC1=O (stereo unspecified),.,8
CSc1sc(-c2ccon2)c(-c2ccccc2)c1C#N,-2.2,.
O=C(NCc1ccccc1)c1ccc2c(=O)n3nc(Nc4ccccc4)sc3nc2c1,.,-6
CCOC(=O)c1c(C)nn(-c2ccc(N3C(=O)CCC3=O)cc2)c1C,.,12
CC1CCCC(NC(=O)CSc2ncnc3ccccc23)C1C (stereo unspecified),-1.9,-13
CCN(CC)C(=O)Oc1ccc2c(C)c(-c3ccc(OC)cc3)c(=O)oc2c1,.,4
CCN1C(=O)c2cccc3c(S(=O)(=O)N4CCc5ccccc54)ccc1c23,.,6
COC(=O)C1=C(C)NC2=C(C(=O)c3ccccc32)C1c1ccc(O)c(OC)c1 (stereo unspecified),-0.8,9

# Going on with the list.
SMILES,MgrA-DNA mod,S aureus helic
Cc1n(O)c2c(NO)ccc(N=O)c2[n+]1[O-],2.0,9
COc1ccc(-c2nc(SC(C)C(=O)O)c3c(=O)n(C)c(=O)n(C)c3n2)cc1 (stereo unspecified),.,2
Cc1onc(-c2c(Cl)cccc2Cl)c1C(=O)OCC(F)(F)F,-1.1,.
COc1nc(C)nc(N/C=C(\C#N)C(=O)C2CC2)n1,.,9
O=C(CN1CCSc2ccccc21)NCc1ccccc1,.,-8
COc1ccc(N=c2sc(C3=c4ccccc4=NC3=O)c(O)n2-c2ccc(OC)cc2)cc1,-1.9,.
CCOC(=O)N1CCc2c(sc3ncn(Cc4ccc(Cl)cc4)c(=O)c23)C1,-3.8,.
CCCN(CCC)c1ncnc2ccc(Br)cc12,0.6,5
COC(=O)c1ccc(CSc2nnc(N)s2)o1,0.1,-4
CC1Sc2ccc(S(=O)(=O)C(C)CC(=O)Nc3ccccc3F)cc2NC1=O (stereo unspecified),.,-32
CCOC(=O)c1sc(Nc2ccc(C)cc2)c(C(=O)NCc2ccco2)c1N,.,6
CC1CC(=O)c2cnn(-c3nc4ccccc4s3)c2C1 (stereo unspecified),.,3
COC(=O)Nc1ccc(S(=O)(=O)N2CCCCC2)cc1,4.6,1
CCOc1ccc(S(=O)(=O)NCC(c2ccc(N(C)C)cc2)N(C)C)cc1 (stereo unspecified),.,-18
COc1cccc(CSc2nncn3c2cc2oc(C)cc23)c1,.,-13
c1ccc(Oc2ccc(-c3ccn[nH]3)cc2)cc1,-1.5,.
Cc1oc(-c2ccc(C(=O)O)cc2)nc1COc1ccccc1,-1.5,7
CCc1cc(C=Nc2ccccc2)c(O)s1,13&29,0&3
COc1ccc(C2=NN(CN3C(=O)C(=O)c4cc(Br)ccc43)C(c3ccccc3)C2)cc1 (stereo unspecified),1.9,.
Cc1ccc(S(=O)(=O)c2nc(N3CCOCC3)sc2Cl)cc1,-2.5,-7
N#CC1=C(N)OC(C2CC2)=C(C#N)C1c1ccccc1 (stereo unspecified),3.5,.
C[C@H](N)[C@H](O)c1cccc(O)c1,-2.6,.
CN(C(=O)CSc1nnc(-c2ccccc2)o1)C1CCS(=O)(=O)C1 (stereo unspecified),.,-17
CCOC(=O)Cn1c(-c2ccc(Cl)cc2)csc1=Nc1ccc(F)cc1,-6.0,15
O=c1c(NCCCc2ccccc2)nccn1-c1ccc2c(c1)OCCO2,.,17
O=C(Cn1c(CO)nc2ccccc21)Nc1ccccc1,-1.6,13
O=C1c2ccccc2C(=O)N1CCn1cnc2c(cnn2-c2cccc(Cl)c2)c1=O,.,-14

# Four entries from above, sorted by the value under S aureus helic, rising:
SMILES,MgrA-DNA mod,S aureus helic
CC1Sc2ccc(S(=O)(=O)C(C)CC(=O)Nc3ccccc3F)cc2NC1=O (stereo unspecified),.,-32
O=C(CN1CCSc2ccccc21)NCc1ccccc1,.,-8
CCOC(=O)c1sc(Nc2ccc(C)cc2)c(C(=O)NCc2ccco2)c1N,.,6
COc1nc(C)nc(N/C=C(\C#N)C(=O)C2CC2)n1,.,9

# From PubChem BioAssay
